# Marburg entry inh = Marburg virus entry inhibition. 300,000 compounds, 1.8% hits. Marburg virus pseudotyped entry inhibition, cell reporter; control for the full effect not named in the record; about a third of the inactives were read at about 46 µM. Potency, µM (series often up to 37.8 µM), inactives show at the highest dose activity change, negative = inhibition, actives largely listed as inhibitors; active = well fitted inhibition curve with a large enough effect; inconclusive = small, poorly fitted or top-dose-only effect, or effect the other way; inactive = flat fitted curve, though single readings scatter; tested in HEK293 cells; about a fifth of its hits are not listed in these tables; note: % is set by controls: 0 for no effect and ±100 for the full control effect; luciferase read-out
# Lassa entry inh = blocks Lassa virus binding to or entry into cells. Lassa virus pseudotype entry inhibition, cell reporter; control for the full effect not named in the record. Potency, µM (series often up to 37.9 µM), without a hit: at the top dose activity change, negative = inhibition, most hits filed as inhibitors. 300,000 compounds, 1.2% hits. AID 540256; active means well fitted inhibition curve with a large enough effect; inconclusive means small, poorly fitted or top-dose-only effect, or effect the other way; inactive means flat fitted curve, though single readings scatter; tested in HEK293 cells; note: % is set by controls: 0 for no effect and ±100 for the full control effect; nearly all actives have a fitted effect of over 50% in size; luciferase read-out
# RE007 growth inh = less growth of the S. pombe RE007 Vpr strain; S. pombe RE007 Vpr strain, BacTiter-Glo ATP luminescence, 24 h; control for the full effect not named in the record; Potency, µM (series often up to 92.2 µM), for the others: at the highest dose activity change, negative = less growth; 360,000 compounds, 0.21% hits; active = well fitted falling curve with a large enough effect; inconclusive = small, poorly fitted or top-dose-only effect; inactive = no such curve, though single readings can be large or run the other way;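 note: % is set by controls: 0 for no effect and ±100 for the full control effect; nearly all actives have a fitted effect of over 50% in size; the assay follows cell death caused by Vpr and the record does not say whether a fall means rescue or toxicity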
#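 Fission yeast RE007 carrying one integrated HIV-1 vpr copy, seeded at OD 0.01 in PMG+AL medium with 23 nL pinned compound. Grown 24 h at 30 degrees; viability read by BacTiter-Glo luminescence after 5 min.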
# StopGo reporter = FMDV 2A StopGo reporter, luciferase signal; AID 1159524; 410,000 compounds, 1.2% hits; Potency, µM (titrated, usually from 57.9 µM), inactives show top-dose signal change, negative = less light; human cells with a luciferase reporter of 2A StopGo recoding; control for the full effect not named in the record; active = well fitted falling curve with a large enough effect; inconclusive = small, poorly fitted or top-dose-only effect; inactive = no such curve, though single readings can be large or run the other way; tested in HEK293T cells; note: % is set by controls: 0 for no effect and ±100 for the full control effect; nearly all actives have a fitted effect of over 45% in size; luciferase light after 4 h
# Cruzain inh noDet = blocks cruzain activity in detergent-free assay; P25779; purified cruzain, Z-FR-AMC fluorescence, no detergent; Potency, µM, without a hit: max response, negative = inhibition, hits mostly inhibitors; 200,000 compounds, 2.3% hits; AID 1476; active = well fitted curve in the direction sought with a large enough effect; inconclusive = small, poorly fitted or top-dose-only effect, or another doubt; inactive = no such curve, though single readings can be large; an effect the other way counts as inactive or inconclusive;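 note: plate controls were enzyme without inhibitor for no effect and buffer without enzyme for full effect; nearly all actives have a fitted effect of over 40% in size; top concentration of the series not given in the record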
# Target sequence (P25779 123-467 limits assumed): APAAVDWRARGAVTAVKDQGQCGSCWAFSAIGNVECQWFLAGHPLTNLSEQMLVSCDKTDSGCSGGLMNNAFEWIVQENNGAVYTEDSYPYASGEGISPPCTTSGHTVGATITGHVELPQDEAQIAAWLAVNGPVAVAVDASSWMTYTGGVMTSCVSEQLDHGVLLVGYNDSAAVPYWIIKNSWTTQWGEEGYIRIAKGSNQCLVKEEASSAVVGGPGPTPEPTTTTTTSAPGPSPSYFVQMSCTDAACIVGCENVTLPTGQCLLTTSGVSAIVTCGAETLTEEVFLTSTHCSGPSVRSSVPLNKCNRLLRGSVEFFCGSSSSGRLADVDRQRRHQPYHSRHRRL
#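 Purified cruzain at 1.5 nM, pre-incubated 15 min with compound at room temperature in 100 mM sodium acetate pH 5.5, 5 mM DTT, 0.00005% Triton X-100. Reaction started with 2 uM Z-FR-AMC; AMC fluorescence increase over 60 s gives rate.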
# SARS PLpro yeast = inhibitors of SARS-CoV papain-like protease in yeast; S. cerevisiae expressing SARS-CoV PLpro, growth rescue; control for the full effect not named in the record; Potency, µM (top dose mostly 32.9 µM), inactives show at the top dose activity, positive = growth rescue; 330,000 compounds, 0.19% hits; note: 0% is about no effect; nearly all actives have a fitted effect of over 55% in size; growth read by luminescence after 48 h
# Cruzain inh Det = cruzain (T. cruzi) inhibition with detergent; AID 1478; Potency, µM, inactives show max response, negative = inhibition, hits mostly inhibitors; purified cruzain, Z-FR-AMC fluorescence, 0.01% Triton; 200,000 compounds, 0.43% hits; P25779; active = well fitted curve in the direction sought with a large enough effect; inconclusive = small, poorly fitted or top-dose-only effect, or another doubt; inactive = no such curve, though single readings can be large; an effect the other way counts as inactive or inconclusive;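 note: plate controls were neutral wells for no effect and buffer without enzyme for full effect; nearly all actives have a fitted effect of over 40% in size; top concentration of the series not given in the record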
#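 Compounds were screened in titration against cruzain (1.5 nM) with 0.01% Triton X-100 to counter colloidal aggregation. Activity was the AMC fluorescence increase over 60 s after adding 2 uM Z-FR-AMC at pH 5.5.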
# NS1 function inh = inhibitors of influenza NS1 protein function | S. cerevisiae slowed by influenza A NS1, growth recovery by OD600 | Potency, µM (doses to about 46.1 µM), without a hit: at the highest dose activity, positive = more growth | 270,000 compounds, 0.4% hits | AID 2326; note: actives are rising curves; nearly all actives have a fitted effect of over 50% in size
#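 Growth recovery, yeast-based: influenza A NS1 expressed in S. cerevisiae causes slow growth, and suppressors are detected by OD600. The parent strain without NS1 is used as positive control.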
# An asterisk follows results filed as active; ? = inconclusive; · = not tested or not shown; & = joins results of further samples; [ ] = dose if it differs, or a comment. Unless noted, calls come from the whole dose curve; as a rule, active means well fitted rising curve with a large enough effect; inconclusive means small, poorly fitted or top-dose-only effect; inactive means no such curve, though single readings can be large or run the other way. Potency is the fitted concentration of half-maximal effect.
SMILES,Marburg entry inh,Lassa entry inh,RE007 growth inh,StopGo reporter,Cruzain inh noDet,SARS PLpro yeast,Cruzain inh Det,NS1 function inh
Cc1cccc(C)c1NC(=O)NC1(C(=O)NCCN2CCOCC2)CCCCC1,19%,-1%,?,-11%,·,2%,·,·
O=[N+]([O-])c1ccc(N/N=C/c2sc(N3CCOCC3)nc2-c2ccccc2)c(S(=O)(=O)Nc2ccc(Cl)cc2)c1,·,·,-4%,?,·,1%,·,0%
Cc1noc(NS(=O)(=O)c2ccc(NC(=O)c3cc(S(=O)(=O)Nc4ccc(F)cc4)ccc3Cl)cc2)c1C,0%,4%,1%,0%,·,·,·,·
CCNC(=S)NNC(=O)c1cc(-c2cccnc2)nc2ccccc12,?,1%,?,31%[activator],·,10%,·,·
COCCn1nnnc1C(c1ccc2ncccc2c1)N1CCc2ccccc21 (centres undefined),-5%,-20%,6%,·,7%,-2%,1.1%,-6%
Cc1ccc(Cl)cc1-n1c(O)c(C=NCCCN2CCOCC2)c(=O)[nH]c1=O,-11%,-6%,6%,-20%,-2%,-6%,-1.0%,7%
Nc1c(C(=O)NCc2ccc(Cl)cc2)sc2nc(-c3ccc(F)cc3)ccc12,15%[46.1 µM],1%[46.1 µM],·,-6%,10µM*,·,13µM*,·
CC(NC(=O)c1cccc(S(=O)(=O)N(C)C)c1)C1CC2CCC1C2 (centres undefined),2%[46.1 µM],-19%[46.1 µM],-24%,52%[activator],·,7%,·,23%
FC(F)(F)c1nnc2c(Sc3ccccc3)nc3ccc(Cl)cc3n12,?,?,24%,?,-2%,1%,-0.7%,2%
CCc1nnc(NC(=O)CSc2nc3c([nH]c4ccccc43)c(=O)n2-c2ccc(F)cc2)s1,·,-1%[46.1 µM],·,-24%,4%,·,-0.6%,·
C(#Cc1ccc(C#CCN2CCCC2)cc1)CN1CCCC1,?,-30%,-17%,-14%,2%,-1%,4.1%,8%
COc1cccc(-c2n[nH]c3c2C(c2cccc(O)c2)N(C)C3=O)c1 (centres undefined),·,0%[46.1 µM],·,-11%,1%,·,-4.4%,·
Cc1ccc(-n2ccc(=O)c(C(=O)Nc3ccc(S(=O)(=O)Nc4nccs4)cc3)n2)cc1,15%[46.1 µM],1%[46.1 µM],-7%,22%,·,4%,·,-5%
Cc1cc(N2CCOCC2)n2nc(C(F)(F)F)c(-c3ccccc3)c2n1,-1%,?,2%,-9%,·,1%,·,0%
Cc1ccc(NC(=O)CCc2nc3ccccc3[nH]2)cc1C,·,·,-13%,-22%,·,-3%,·,-3%
COC(=O)N/N=C/c1cn(CCOc2ccc(OC)cc2)c2ccccc12,·,·,1%,?,·,-1%,·,-8%
O=C(CCNC(=O)N1C[C@H]2C[C@@H](C1)c1cccc(=O)n1C2)Nc1ccc(F)cc1,·,·,8%,-5%,·,-4%,·,3%
C1=C(CCNCC2CCCCC2)CCCC1,?,-13%,-10%,6%,-21%,-2%,0.7%,-1%
CC(C)N(Cc1cnn(C)c1)Cc1nc(COc2ccccc2)no1,3%[46.1 µM],12%,0%,-9%,·,1%,·,0%
Brc1ccc2c(c1)c1cc(Br)ccc1n2CC1CO1 (centres undefined),?,?,·,·,0%,·,-1.7%,·
CN(CC(=O)Nc1ccc(OC(F)(F)F)cc1)C(=O)Cc1c(Cl)cccc1Cl,?,-18%,34%,-6%,·,-2%,·,15%
Cc1cccc(N2CCN(C(=O)c3c(-c4ccccc4)noc3C)CC2)c1C,2.5µM*,?,8%,?,·,-12%,·,-22%
CCOC(=O)CNC(=O)c1cc2c(=O)n3cccc(C)c3nc2s1,?,23%[46.1 µM],·,31%[activator],-18%,·,-3.3%,·
CCC(=O)Nc1ccc(CC)cc1-c1nc2ccccc2n(CC(=O)c2ccc(OC)cc2)c1=O,22%[46.1 µM],11%[46.1 µM],·,-8%,7%,·,-3.0%,·
CCn1c(SCC(=O)NCC2CCCO2)nc2cc(S(=O)(=O)N3CCCCC3)ccc21 (centres undefined),-15%&-15%[46.1 µM],-1%,7%,8%,17%,-3%,-1.9%,-2%
Cc1sc(Cc2nc(O)cs2)nc1-c1ccccc1,?,1%,-1%,-13%,·,-2%,·,·
CSc1nnc(NC(=O)C23CC4CC(CC(C4)C2)C3)s1,·,·,-6%,10%,·,2%,·,-1%
Cc1nn(Cc2ccccc2)c(Cl)c1C(=O)OC1CCOC1=O (centres undefined),-5%,19%,-6%,-21%,7%,8%,1.6%,-7%
C=CCn1c(Br)nc2c1c(=O)[nH]c(=O)n2C,6%,-16%,1%,-7%,-3%,0%,-2.8%,-3%
N#Cc1nc(N2CCCC2)nc(N2CCCC2)n1,?,-21%,-20%,?,5µM*,-1%,7.9µM*,-36%
Cc1cc(C)n(-c2ccc3cccc(NS(C)(=O)=O)c3n2)n1,?,?,3%,-11%,-3%,-4%,0.0%,-6%
Cc1ccc(CSc2nc3c(c(SCC(=O)O)n2)CCCC3)cc1,26%,14%,3%,-5%,?,-4%,-10%,-64%
CCc1ccc(/C=N/NC(=O)c2ccc(OC3CCCC3)cc2)s1,-16%,2µM*,4%,-21%,-16%,-4%,-5.8%,2%
CCn1nc(NS(=O)(=O)c2ccc(NC(C)=O)cc2)c2cc3cccc(C)c3nc21,·,·,-1%,31%[activator],·,1%,·,0%
C=CCOC(=O)C1C(C(=O)O)C2(Cl)C(Cl)=C(Cl)C1(Cl)C2(Cl)Cl (centres undefined),?,0%[46.1 µM],-10%,-19%,·,·,·,·
COc1ccccc1NC(=O)NNC(=O)c1ccc(-c2ccccc2)cc1,·,·,-4%,7%,·,11%,·,-22%
CC(NC(=O)c1cc(COc2c(F)cccc2F)on1)c1cnn(-c2ccccc2)c1 (centres undefined),·,·,14%,48%[activator],·,0%,·,-10%
O=C(CSc1nnnn1-c1cccc(C(=O)O)c1)NC(c1ccccc1)c1ccccc1,?,13%,0%,0%,·,1%,·,8%
CC(=O)Nc1ccc(-c2nnc3n(Cc4ccc(C)cc4)c(=O)c4ccccc4n23)cc1,3%[46.1 µM],2%[46.1 µM],·,-13%,12%,·,1.0%,·
CCCCCC(=O)Nc1cc(S(=O)(=O)N2CCOCC2)ccc1Oc1ccc(OCC)cc1,-10%,?,-15%,-14%,·,0%,·,·
O=C(Nc1cccc(S(=O)(=O)N2CCOCC2)c1)[C@@H]1CCCN1S(=O)(=O)c1ccc(Cl)cc1,?,-1%,0%,?,?,3%,-0.9%,12%
Cn1c(=O)c2c(SCC(=O)NCC3CCCO3)nc(CC(C)(C)C)nc2n(C)c1=O (centres undefined),·,·,3%,-12%,·,-1%,·,1%
Cc1ccccc1OCC(=O)OCC(=O)N1CCc2ccccc21,8%,16%,-14%,-1%,·,0%,·,·
O=S(=O)(CCc1nc2ccccc2o1)c1ccc2ccccc2c1,13%,0%,-6%,-11%,1%,-2%,-5.2%,0%
COC(=O)c1c(-c2ccc(C)cc2)csc1NC(=O)c1c(-c2ccccc2)noc1C,7%,·,·,·,?,2%,-2.9%,8%
COC(=O)c1ccc(C(=O)NN)cc1,?,-3%,-4%,3%,·,0%,·,7%
O=C(CCNS(=O)(=O)c1cccc2nonc12)NCc1cccs1,-6%,-7%,-12%,1%,-9%,6%,4.6%,1%
CC(=O)c1cccc(-n2c(=O)c3c4c(sc3n(Cc3ccccc3Cl)c2=O)CN(C(C)=O)CC4)c1,?,·,·,-12%,3%,·,-1.5%,·
CCCn1c(=O)c2c(nc3n2CCCN3CCc2ccc(OC)c(OC)c2)n(C)c1=O,·,·,0%,?,·,-2%,·,-5%
COc1ccc(NC(=O)c2cc(-c3cccs3)on2)c(OC)c1,-6%[46.1 µM],17%[46.1 µM],-10%,18%,·,2%,·,13%
O=C(c1ccco1)N1CCN(S(=O)(=O)Cc2ccccc2Cl)CC1,-7%[46.1 µM],8%,12%,-4%,·,0%,·,2%
CC(C)C[C@H](NC(=O)C1CC(=O)N(c2ccc(F)cc2)C1)C(=O)N1CCCCC1 (some centres undefined),25%[46.1 µM],-5%[46.1 µM],-8%,-2%,·,-5%,·,-9%
O=C(Cc1csc(-c2ccccc2)n1)NCc1ccccc1F,?,-2%,·,·,-23%,-19%,-3.2%,-8%
COc1cccc(CNC(=O)c2ccc3c(c2)N(C)C(=O)C2CCCCN32)c1 (centres undefined),·,6%[46.1 µM],·,4%,-13%,·,-5.8%,·
COc1ccc(CC(=O)NN2C(=O)c3ccccc3C2=O)cc1,2%,1%,17%,6%,-10%,?,-2.7%,6%
Nc1c(C(=O)NCc2ccc3c(c2)OCO3)nnn1Cc1cccc(F)c1,6%[46.1 µM],1%[46.1 µM],26%,-7%,·,1%,·,-1%
O=C(Cn1cnc2c(NCc3ccccc3)ncnc21)NCc1ccc2[nH]ccc2c1,-4%,·,12%,-12%,·,2%,·,·
Fc1ccc(-c2nnc(-c3ccc(Cl)cc3)o2)cc1,?,-9%,13%,61%[activator],?,9%,2.0%,-17%
CCc1nnc(NC(=O)CN2CCN(S(C)(=O)=O)CC2)s1,-1%[46.1 µM],11%[46.1 µM],5%,-1%,·,-5%,·,4%
CCCCn1c(N)c(N(CC(C)C)C(=O)CCS(=O)(=O)c2ccc(C)cc2)c(=O)[nH]c1=O,3%,?,3%,3%,·,-2%,·,·

# Other compounds follow.
SMILES,Marburg entry inh,Lassa entry inh,RE007 growth inh,StopGo reporter,Cruzain inh noDet,SARS PLpro yeast,Cruzain inh Det,NS1 function inh
CCN(CC(=O)Nc1ccccc1C(F)(F)F)C(=O)Cc1sc(C)nc1-c1ccc(F)cc1,22%,9%,11%,-23%,·,3%,·,·
CN1CCSc2ccc(C(=O)NCc3ccccc3F)cc21,18%[46.1 µM],·,-20%,88%&84%[activator],29%,-11%,-8.4%,1%
CCOC(=O)NC(NCCc1ccccc1)(C(F)(F)F)C(F)(F)F,25%,13%,-6%,·,-15%,9%,-0.8%,0%
Cc1ccc(CNC(=O)CCc2cn(Cc3ccc(C)cc3)c3ccccc23)cc1,·,0%[46.1 µM],·,-12%,1%,·,-2.6%,·
COc1cccc(C(=O)N2c3nc(-c4ccco4)nn3C3(CCCCC3)[C@@H]3CCCC[C@@H]32)c1,-7%[46.1 µM],6%[46.1 µM],·,-27%,-9%,·,-7.2%,·
CCSc1nc2sc3c(c2c(=O)[nH]1)CC(C)(C)OC3,·,·,8%,17%,·,2%,·,3%

# Assay outcomes (PubChem)
